VDR inhibitor: vitamin D3 receptor (human) inhibition; P11473; VDR-SRC2-3 peptide fluorescence polarization, 2 h; Potency, µM, inactives show max response, negative = inhibition, usual class: inhibitors; actives 0.93% (n = 400,000); active = well fitted inhibition curve with a large enough effect; inconclusive = small, poorly fitted or top-dose-only effect, or another doubt; inactive = no such curve, though single readings can be large or run the other way; also: series mostly up to about 120 µM
Target sequence (P11473 whole entry, looked up): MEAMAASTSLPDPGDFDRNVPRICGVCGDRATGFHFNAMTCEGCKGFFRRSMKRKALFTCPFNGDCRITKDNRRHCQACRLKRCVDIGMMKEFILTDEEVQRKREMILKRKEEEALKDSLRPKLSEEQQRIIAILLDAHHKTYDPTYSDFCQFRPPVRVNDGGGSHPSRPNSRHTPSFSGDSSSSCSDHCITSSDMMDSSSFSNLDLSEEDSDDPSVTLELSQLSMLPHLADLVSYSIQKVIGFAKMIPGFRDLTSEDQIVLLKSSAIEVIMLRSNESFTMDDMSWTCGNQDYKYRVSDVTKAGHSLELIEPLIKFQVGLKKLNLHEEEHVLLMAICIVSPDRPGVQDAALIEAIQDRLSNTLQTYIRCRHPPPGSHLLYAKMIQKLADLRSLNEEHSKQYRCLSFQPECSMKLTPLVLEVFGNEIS
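Fluorescence polarization assay of small-molecule disruption of VDR binding to coregulator peptide SRC2-3. Compounds and controls pin-transferred, then read after 2 h incubation at ambient room temperature.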
* = called active by the depositor; ? = inconclusive; & = joins results of further samples; [ ] = remark or other dose. % is scaled to controls: 0 for no effect and ±100 for the full control effect; potency is read from the fitted curve at half-maximal effect.

VDR inhibitor,compound
8%,O=C(COc1ccc(F)cc1)Nc1ccc(C(=O)OCc2cc(=O)n3nc(C4CC4)sc3n2)cc1
-4%,CCC1Oc2ccc(C)cc2N(CC(=O)NCc2ccccc2OC)C1=O (stereo unspecified)
-4%,Cc1cc(C)cc(N(CC(=O)Nc2c(C)n(C)n(-c3ccccc3)c2=O)S(C)(=O)=O)c1
1%,O=C1c2cccc(OCC(=O)N3N=C(c4cccs4)CC3c3ccc(F)cc3)c2CCN1Cc1cccnc1 (stereo unspecified)
-12%,Cc1ccc(C)c(N2CCN(C(=O)C3CCCN(c4ncnc5c4nc4n5CCCCC4)C3)CC2)c1 (stereo unspecified)
18%,OC(C#CCN1CCOCC1)(c1ccccc1)C1CCCCC1 (stereo unspecified)
-5%,O=C(CCNC(=O)c1ccccc1Cl)Nc1cccc(S(=O)(=O)N2CCCCC2)c1
0%,COc1cccc(-c2nc(C(N)=O)c3[nH]c(=O)n(-c4cccc(Cl)c4)c3n2)c1OC
-4%,Cc1cccc(OCc2nnc(SCC(=O)Nc3ccc(N4CCOCC4)cc3)o2)c1
-6%,CC(OC(=O)CN1C(=O)c2ccccc2C1=O)C(=O)NC1(C#N)CCCCC1 (stereo unspecified)
1%,CC(=O)OCc1c(C(F)(F)F)nn(C)c1Oc1ccccc1
-1%,Cc1ccc(C(=O)OCc2nnc(-c3ccc(Br)cc3)o2)cc1
?,Cc1cccc(C)c1N(CC(=O)N1CCOCC1)S(C)(=O)=O
1%,CCC(=O)c1ccc(N2CCN(C(=O)c3cc([N+](=O)[O-])ccc3N3CCN(C)CC3)CC2)c(F)c1
1%,O=C(NNC(=O)c1cc2ccccc2cc1O)Nc1ccccc1F
-5%,CCN(CC)Cc1c[nH]c2c(C(=O)OC)cccc12
-10%,CCC/C(=N\NC(=O)CNC(=O)/C=C/c1ccco1)c1ccccc1
-5%&8%,Cc1cccc(N2CCN(C(=O)CCS(=O)(=O)c3ccc4c(c3)oc(=O)n4C)CC2)c1C
4%,O=C(NCCc1ccc(Cl)cc1Cl)C1=CC=CN2CCS(=O)(=O)N=C12
6%,O=[N+]([O-])c1ncn(C23CC4CC(CC(C4)C2)C3)n1
-5%,C=CCOC(=O)C1=C(C)NC(=O)NC1/C=C/c1ccccc1OC (stereo unspecified)
5%,COc1ccc(-c2nsc(NC(=O)COc3ccccc3OC)n2)cc1
9%,COc1ccc(CCNC(=O)Cc2cccs2)cc1OC
8%,CCOC(=O)c1c(NC(=O)COC(=O)c2cccnc2OCC)sc(C(=O)N(CC)CC)c1C
-7%,Cc1cccc(C)c1NC(=S)N/N=C/c1c(Cl)cccc1Cl
-7%,CCCCC(CC)Cn1c(Oc2ccccc2)nc2c1c(=O)n(C)c(=O)n2C (stereo unspecified)
13%,COc1ccc(CCNC(=O)c2nnn(-c3cccc(C)c3)c2N)cc1OC
-14%,Cc1nn(C)c(C)c1NC(=O)c1ccc(Cl)cc1
-4%,O=C(O)c1cccnc1-c1ncccc1C(=O)O
-4%,COc1ccc(NC(=O)c2ccccc2CC[N+](=O)[O-])cc1
7%,COc1ccc(CNC(=O)CN(C)S(=O)(=O)c2ccc3[nH]c4c(c3c2)CCCC4)cc1
?,COc1ccccc1-c1cc(C(F)(F)F)nc(S(=O)(=O)CCCC(=O)Nc2cc(Br)ccc2O)n1
-9%,O=S(=O)(NCc1ccccc1)c1ccc(S(=O)(=O)N(Cc2cccs2)CC2CCCO2)cc1 (stereo unspecified)
0%,Cc1cccc(N2CCN(C(=O)NCc3noc4ccccc34)CC2)c1C
-2%,Cc1cc(C)c2nc(C(F)(F)F)nc(N3CC(C)OC(C)C3)c2c1 (stereo unspecified)
18%,Cc1cc(C)cc(NC(=O)C(C)N2Cc3ccccc3C2=O)c1 (stereo unspecified)
6%,Cc1c(NC(=O)c2nn3c(C(F)(F)F)cc(-c4ccccc4)nc3c2Br)c(=O)n(-c2ccccc2)n1C
13%,COc1ccc(/C=N/Nc2nc(=O)[nH]nc2C)cc1OC
-13%,ON=C1CCCCCCCC1
9%,Cc1cc(C(=O)N/N=C/c2cccc([N+](=O)[O-])c2)c(C)n1-c1ccccc1
3%,CC(=O)N1CCCC1(C(=O)O)c1ccccc1 (stereo unspecified)
0%,OCCNc1nnc(-c2ccccc2)c(-c2ccccc2)n1
-6%,O=c1cc(O)nc(SC23CC4CC(CC(C4)C2)C3)[nH]1
12%,O=C(Nc1ccccc1N1CCN(c2ccc(F)cc2)CC1)c1ccccc1
7%,COc1ccccc1NC(=O)CSc1nncn1-c1ccccc1
-20%,CC(Sc1ccccc1)C(=O)N/N=C/c1ccccc1 (stereo unspecified)
8%,CC(=O)c1cccc(S(=O)(=O)NCCC(=O)O)c1
-4%,O=C(Nc1cc(S(=O)(=O)N2CCOCC2)ccc1N1CCOCC1)c1cccc(S(=O)(=O)N2CCCCC2)c1
-2%,Clc1ccc2nc(Nc3ccccc3Cl)nc(-c3ccccc3)c2c1
-19%,CN(CCc1ccccc1)C(=O)c1ccc(NC(=O)Cc2ccc(NC(=O)C3CCN(C(=O)CCc4ccccc4)CC3)cc2)cc1
?,CCCCc1nc2cc(C(=O)N3CCCCC3CCNC(C)=O)ccc2o1 (stereo unspecified)
6%,Cc1cc(NC(=O)COc2ccc(N(C)S(=O)(=O)c3ccccc3)cc2)no1
8%,CC1CCc2onc(C(=O)Nc3ccc(Cl)cc3)c2C1 (stereo unspecified)
2%,COc1ccc(-n2nc(C(=O)NCC(=O)NCC3CCCO3)c3ccccc3c2=O)cc1Cl (stereo unspecified)
-5%,COc1ccccc1NC1=CC(=O)CC(c2ccccc2)C1 (stereo unspecified)
3%,O=C1C2CC=CCC2C(=O)N1Nc1ccccc1 (stereo unspecified)
-2%,C=CCn1c(=NC(=O)c2cccs2)sc2cc(NC(C)=O)ccc21
-7%,NC(=O)C1CC(O)CN1c1nc(CN2CCOCC2)nc2scc(-c3ccccc3)c12 (stereo unspecified)
2%,O=C(Nc1ccncc1Cl)c1ccncc1
7%,Cn1c(=O)[nH]c(=O)c2c1nc(N1CCCCC1)n2CC(O)COc1ccc([N+](=O)[O-])cc1 (stereo unspecified)

(more compounds)
VDR inhibitor,compound
-2%,c1ccc(C2=Nn3c(nnc3-c3ccco3)SC2)cc1
-18%,Clc1cccc(Nc2nc(-c3ccncc3)cs2)c1
-15%,Cc1ccc(C(=O)N/C(=C\c2ccc(Cl)cc2)C(=O)NCC2CCCO2)cc1 (stereo unspecified)
-8%,COc1ccc(-n2nc(C(=O)NCC(=O)NC(C)C)c3ccccc3c2=O)c(OC)c1
0%,COc1ccc(C(CNC(=O)c2cccc(S(=O)(=O)Nc3ccccc3OC)c2)N2CCOCC2)cc1 (stereo unspecified)
-3%,Cc1ccc(C(=O)OCC(=O)Nc2ccccc2N2CCOCC2)cc1
?,Cc1cc(C)c(S(=O)(=O)c2ccccc2C(=O)O)c(C)c1
18%,CC(C)CNC(=O)CSc1nnc(-c2ccc(Cl)cc2)n1N
11%,COc1ccc(C(=O)CCC(=O)Nc2cccnc2)c(OC)c1
16%,O=C(CN1CCCN(Cc2ccc(F)cc2)S1(=O)=O)Nc1ccc2c(c1)OCCO2
-8%,COC(=O)C1=C(C)Nc2c(c(=O)n(C)c(=O)n2C)C1c1cccc(O)c1 (stereo unspecified)
-1%,CC1CC(C)CN(CCCNC(=O)CCC(=O)N2CC(C)Oc3ccccc32)C1 (stereo unspecified)
7%,COc1ccc(N2C(=O)NC3CC2(C)Oc2ccccc23)cc1 (stereo unspecified)
-18%,Nc1nc(-c2ccccc2)cn1N
2%,Cc1nc2c(-c3ccccc3)c(C)nn2c(C)c1CCC(=O)NCc1cccc(Cl)c1
-29%,Cc1ccc(NC(=O)C2CCN(S(=O)(=O)c3ccc4c(c3)OCCO4)CC2)c(O)c1
-3%,CN(CCc1ccccc1)C(=O)c1ccc(NC(=O)Cc2ccc(NC(=O)C3CCCN(C(=O)c4ccccc4)C3)cc2)cc1 (stereo unspecified)
?,CC(C)(S)[C@@H](N)C(=O)O
-8%,COc1cc(C(=O)NCC(C)(C)CNC(=O)c2cc(OC)c(OC)c(OC)c2)cc(OC)c1OC
14%,CCN(CC)c1ccc(NC(=O)CNCc2ccccc2Cl)c(C)c1
8%,Cc1noc(C)c1CSCc1ccc(Cl)cc1
-8%,O=C(c1ccccc1)N1CCCC(c2nc3c(nnn3Cc3ccc(F)cc3F)c(=O)[nH]2)C1 (stereo unspecified)
15%,COc1ccc(CNC(=O)COC(=O)/C=C/c2ccc(S(=O)(=O)N3CCOCC3)cc2)cc1
-10%,COc1ccccc1NC(=O)Nc1nnc(C(C)c2ccccc2)s1 (stereo unspecified)
-10%,CNC(=O)CSc1nnc(-c2ccccc2F)n1CCc1ccccc1
-13%,CC(C)NC(=O)N(C)C[C@H]1Oc2c(NC(=O)C3CCCCC3)cccc2C(=O)N([C@H](C)CO)C[C@@H]1C
5%,O=C(CCCc1ccccc1)NCCc1ccccc1
-2%,COCCn1c(=O)cnc2cnc(N(C)C)nc21
?,CN1C(=O)NC2(O)C(=O)c3ccccc3C12O (stereo unspecified)
-6%,CCOc1ccc2[nH]c(=O)c(CN(Cc3ccco3)Cc3nnnn3Cc3ccccc3)cc2c1
0%,NC(=O)c1ccc(-c2nnn(CC(=O)N(C3CCCC3)C3CCS(=O)(=O)C3)n2)cc1 (stereo unspecified)
2%,O=C(COC(=O)c1ccco1)Nc1cc(S(=O)(=O)N2CCCCC2)ccc1Cl
1%,CCCn1c(SCC(=O)Nc2nc(C)cs2)nnc1-c1cccnc1
-3%,O=c1cc(CSc2nnnn2-c2ccccc2)nc2nc[nH]n12
4%,CCN1CCN(C(=O)C(C)N(c2ccc(C)cc2)S(C)(=O)=O)CC1 (stereo unspecified)
12%,CCc1nnc(SCc2c(F)cccc2Cl)c2cc3sccc3n12
-1%,COc1ccc(CCN2C(=O)C3C4CC(C5C(C(=O)O)=NOC45)C3C2=O)cc1OC (stereo unspecified)
-4%,CCc1nnc(NC(=O)c2ccc3ccccc3n2)s1
0%,CCN(C(=O)c1cccc(NC(=O)c2ccccc2)c1)C1CCCCC1
22%,N#Cc1ccsc1NC(=O)COC(=O)c1cc(Br)ccc1O

Filtered by structure, those above with an aryl thioether with sulfur outside any ring
VDR inhibitor,compound
-4%,Cc1cccc(OCc2nnc(SCC(=O)Nc3ccc(N4CCOCC4)cc3)o2)c1
-6%,O=c1cc(O)nc(SC23CC4CC(CC(C4)C2)C3)[nH]1
7%,COc1ccccc1NC(=O)CSc1nncn1-c1ccccc1
-20%,CC(Sc1ccccc1)C(=O)N/N=C/c1ccccc1 (stereo unspecified)
18%,CC(C)CNC(=O)CSc1nnc(-c2ccc(Cl)cc2)n1N
-10%,CNC(=O)CSc1nnc(-c2ccccc2F)n1CCc1ccccc1
1%,CCCn1c(SCC(=O)Nc2nc(C)cs2)nnc1-c1cccnc1
-3%,O=c1cc(CSc2nnnn2-c2ccccc2)nc2nc[nH]n12
12%,CCc1nnc(SCc2c(F)cccc2Cl)c2cc3sccc3n12

5 entries drawn at random from the list so far, as already listed:
VDR inhibitor,compound
-3%,O=c1cc(CSc2nnnn2-c2ccccc2)nc2nc[nH]n12
-1%,COc1ccc(CCN2C(=O)C3C4CC(C5C(C(=O)O)=NOC45)C3C2=O)cc1OC (stereo unspecified)
2%,O=C(COC(=O)c1ccco1)Nc1cc(S(=O)(=O)N2CCCCC2)ccc1Cl
?,CN1C(=O)NC2(O)C(=O)c3ccccc3C12O (stereo unspecified)
-6%,CCOc1ccc2[nH]c(=O)c(CN(Cc3ccco3)Cc3nnnn3Cc3ccccc3)cc2c1

More results.
VDR inhibitor,compound
-1%,COc1ccc(Cl)c(Cn2c(NCCCO)nc3c2c(=O)n(C)c(=O)n3C)c1
17%,CCN(CC)CCCNC(=O)c1c(C)oc2ncnc(N3CCOCC3)c12
14%,CCCCC#Cc1ccc(C(=O)NNC(=O)Nc2ccccc2)o1
-7%,CCNc1nc(NCC)nc(N/N=C/c2ccc(N(C)C)cc2)n1
3%,Cc1ccc(CNC(=O)Cn2nnc(C(=O)Nc3cccc(C)c3C)c2N)cc1
6%,Fc1ccc(-c2cc3nc(-c4ccccc4)cc(N4CCOCC4)n3n2)cc1
-16%,CCc1cccc(CC)c1NC(=O)CN(C)S(=O)(=O)c1ccc2c(c1)n(C)c(=O)c(=O)n2C
-10%,COc1cc(C=O)ccc1OCC(=O)Nc1ccccc1N1CCOCC1
4%,CN(Cc1nccn1C)C(=O)CC1C(=O)NCCN1Cc1ccccc1C(F)(F)F (stereo unspecified)
-1%,CCS(=O)(=O)Nc1c(C)n(C)n(-c2ccccc2)c1=O
5%,Cc1ccc(N(CC(=O)Nc2ccc(S(=O)(=O)N3CCOCC3)cc2)S(C)(=O)=O)cc1C
3%,CCOC(=O)c1[nH]c(C)c(C(=O)NC2CCCCCC2)c1C
-2%,COc1cccc(CN(C)CC(=O)Nc2cccc(C(F)(F)F)c2)c1OC
22%,CCOC(=O)CSc1nnc(CSc2nc3ccccc3c(=O)[nH]2)n1-c1ccccc1
3%,Cc1[nH]n(-c2ccc([N+](=O)[O-])cc2)c(=O)c1C=NCCN1CCN(C(=O)c2cccc(F)c2)CC1
31%[activator],CCc1ccc2nc(-c3cccc(C)c3)nc(SCC(=O)NCC3CCCO3)c2c1 (stereo unspecified)
8%,O=C(NCc1cn2ccsc2n1)c1cccc(C(F)(F)F)c1
-8%,C#CCOCCOCCOCCNc1nc(N2CCN(C(=O)Cn3cc(CC(C)O)nn3)CC2)nc(N2CCN(C(=O)[C@H](CCCCN)n3cc(CCC(=O)O)nn3)CC2)n1 (stereo partly specified)
-16%,O=C(NCc1ccccn1)c1ccc(Cl)c(S(=O)(=O)NCc2ccccc2)c1

An excerpt; count on the stated rates, not on these rows.
